# High-throughput results: PubChem BioAssay, National Center for Advancing Translational Sciences (NCATS)
# Vaccinia Venus – qHTS for Stage-Specific Inhibitors of Vaccinia Orthopoxvirus: Venus Reporter Primary qHTS | Vaccinia virus Venus reporter expression, fluorescence | Potency, µM (highest dose often 36.5 µM), for inactives: at the top dose activity change, negative = inhibition, actives largely listed as inhibitors | actives 0.46% (n = 330,000) | AID 720580, 2013; active means well fitted inhibition curve with a large enough effect; inconclusive means small, poorly fitted or top-dose-only effect; inactive means no such curve, though single readings can be large or run the other way; tested in A549 cells; also: nearly all actives have a fitted effect of over 30% in size; inactives centre near -10
# VACV mCherry inh – qHTS for Stage-Specific Inhibitors of Vaccinia Orthopoxvirus: mCherry Reporter Primary qHTS | Vaccinia virus mCherry reporter infection, fluorescence; about a quarter of the inactives have no number | AID 720579, 2013 | Potency, µM (top dose mostly 36.5 µM), without a hit: top-dose activity change, negative = inhibition, actives largely listed as inhibitors | actives 0.63% (n = 310,000); active = well fitted inhibition curve with a large enough effect; inconclusive = small, poorly fitted or top-dose-only effect; inactive = no such curve, though single readings can be large or run the other way; tested in A549 cells; also: nearly all actives have a fitted effect of over 35% in size; inactives centre near -10
# An asterisk follows results filed as active; i = inactive; ? = inconclusive; . = no result given; & = joins results of further samples; [ ] = dose if it differs, or a comment. % is scaled to controls: 0 for no effect and ±100 for the full control effect; potency is read from the fitted curve at half-maximal effect.
SMILES,Vaccinia Venus,VACV mCherry inh
Cc1csc(NC(=O)c2ccc(COc3ccccc3)o2)n1,-22.7%,-4.9%
O=c1ccc2ccc(O)cc2o1,-5.7%&0.0%,4.5%&-2.4%
CC(C)(C)C(=O)Nc1cc(-c2cccc(Br)c2)nn1-c1ccccc1,-4.2%,-19.9%
Cc1cccc(C(=O)OCC(=O)Nc2c(C)nn(-c3ccccc3)c2C)c1O,-8.2%,-14.4%
CCC(=O)NCCc1nc2ccccc2n1Cc1ccccc1,-2.3%,-12.0%
CCOc1cc2oc(=O)c3c(c2cc1Cl)CCC3,-11.8%,i
CCCCNC(=O)C1(C)CCN1C(=O)c1ccc(OC)c(C(F)(F)F)c1 (stereo not given),-13.6%,i
CCc1ccc(-n2c(=O)c3c(C)c(C(=O)N(C)C)sc3n(Cc3ccccc3C#N)c2=O)cc1,-3.9%,-5.1%
COc1cc(C2/C(=C(\O)c3ccc4c(c3)OCCO4)C(=O)C(=O)N2Cc2ccccc2)ccc1O (stereo not given),-0.3%,-25.2%
Cc1nc2ccc(C(=O)OCc3nnc(-c4ccc(Br)cc4)o3)cc2nc1C,-1.4%,-10.0%
CCOc1cccc(CC(=O)N2CCc3c([nH]c4ccccc34)C2c2ccc(F)cc2)c1OCC (stereo not given),-19.0%,-26.5%
Cc1cc(NC(=O)C2CCN(S(=O)(=O)Cc3ccccc3)CC2)ccc1-n1cnnn1,-12.0%,i
O=S(=O)(NCCc1csc(-c2cccnc2)n1)c1ccc2c(c1)OCCO2,-15.7%,-0.3%
CN(C)c1ncnc2ccc(-c3ccccc3C#N)cc12,-9.9%,-11.1%
CC(=O)NC(=S)Nc1ccc(NC(=O)c2cccnc2)cc1,-14.0%,i
CC1=CS(=O)(=O)CC1Sc1ncn[nH]1 (stereo not given),-9.6%,-13.1%
CC1(C)Cc2nc3sc4c(N(CCO)CCO)nnnc4c3cc2CO1,3.9%,i
O=C(CN1CCCCC1)Nc1nc(-c2ccc(F)c(F)c2)cs1,-6.4%,-17.8%
COc1ccc(NC(=S)N(CCCN2CCOCC2)Cc2ccccn2)cc1,-3.6%,-7.1%
COc1ccc(CN(CC(=O)NCC2CCCO2)C(=O)CNS(=O)(=O)c2ccccc2)cc1 (stereo not given),-1.1%,-3.9%
Cn1cc(P(=S)(N2CCOCC2)N2CCOCC2)cc1P(=S)(N1CCOCC1)N1CCOCC1,-13.5%,-3.1%
Cc1ccc(N(CC(=O)NCc2ccc3c(c2)OCO3)S(=O)(=O)c2c(C)noc2C)cc1,-2.9%,-21.0%
COc1ccccc1-c1nc(-c2ccc(C)nc2OC)no1,-4.6%,-14.5%
CSc1ccc(S(=O)(=O)N2CCC(C(=O)Nc3ccc(C(N)=O)cc3)CC2)cc1,-8.3%,i
CCC(C)N(C(=O)Cn1cnc2c1c(=O)n(C)c(=O)n2C)C1CCS(=O)(=O)C1 (stereo not given),-10.5%,-20.0%
O=C(Nc1ccc2c(c1)C(=O)OC2)c1ccc(Cl)cc1,-0.9%,-6.6%
N#CC1=C(N)OC2=C(C(=O)CCC2)C1CCc1ccccc1 (stereo not given),-12.4%,i
Cc1ccc2onc(CNC(=O)N3CCN(c4cccc(C)c4C)CC3)c2c1,-21.6%,-17.0%
CC(C)CCNC(=O)C(c1cccnc1)N(Cc1ccccc1)C(=O)Cn1nnc2ccccc21 (stereo not given),-6.5%,-16.7%
O=C(Oc1cccnc1)c1ccco1,-15.5%,-12.1%
CC(C)NC(=O)N(C)C[C@H]1Oc2ccc(NC(=O)CCC(F)(F)F)cc2C(=O)N([C@H](C)CO)C[C@@H]1C,-9.8%,i
CCOc1ccc(-c2cnc(NCc3cccc(Cl)c3)n2C)cc1,-8.8%,-15.4%
Cc1c(N2C(=O)/C(=C/C3CC=CCC3)SC2=S)c(=O)n(-c2ccccc2)n1C (stereo not given),-24.3%,-11.7%
CCOC(=O)c1c(C)oc2ncnc(Nc3ccc(OC)cc3OC)c12,1.8%,5.1%
COc1ccc(N2C(=O)CC(Sc3nc4c(cc3C#N)CCC4)C2=O)cc1 (stereo not given),6.6%,i
Cc1ccc(N2C(=O)C3C4C=CC(CNC(=S)N5CCN(c6cccc(C)c6)C(C)C5)(O4)C3C2=O)cc1 (stereo not given),-11.5%,-17.2%
CC(=O)OC1CCC2(C)C3CCC4(C)C(OC(C)=O)CCC4C3C(C)C2(O)C1 (stereo not given),-3.8%,i
CCCc1cc(=O)oc2cc(C)cc(OC(=O)c3ccco3)c12,-4.4%,-16.2%
COC(=O)c1sccc1NS(=O)(=O)c1ccccc1[N+](=O)[O-],-19.6%,-2.4%
COc1ccc(C2=NS(=O)(=O)N(C)C(C(=O)N3C(C)CCCC3C)=C2)cc1 (stereo not given),-4.0%,i
CCc1cc(C(N)=S)ccn1,-7.5%&-18.8%&-5.3%,-11.1%
COc1cccc(C2CC(=O)Nc3c2c(=O)nc2c(C)cccn32)c1 (stereo not given),4.9%,1.5%
CC1(C(=O)NS(=O)(=O)c2ccccc2Cl)CCN1C(=O)CCc1ccc(Cl)cc1Cl (stereo not given),-1.8%,-13.9%
COc1ccc(C2C(C(C)=O)=C(O)C(=O)N2c2ccccn2)cc1 (stereo not given),-3.4%,-14.2%
COc1ccc(-c2ccc3c(c2)C2CC3CCN2S(=O)(=O)c2ccccc2C)cc1 (stereo not given),?,-18.4%
CCOC(=O)N1CCN(C(=O)C[C@@H]2C[C@@]3(C(=O)OC)CCCCC=C3N(Cc3ccco3)C2=O)CC1,1.4%,-14.5%
Cc1ccc(C(c2sc3nc(-c4ccco4)nn3c2O)N2CCOCC2)cc1 (stereo not given),-6.9%,-10.8%
CC(C)(C)CC(=O)Nc1nnc(-c2cccs2)s1,-3.6%,-14.3%

# Some of the entries so far, field by field.
COc1ccc(C2=NS(=O)(=O)N(C)C(C(=O)N3C(C)CCCC3C)=C2)cc1 (stereo not given)
- Vaccinia Venus = -4.0%
- VACV mCherry inh = i

CCOC(=O)N1CCN(C(=O)C[C@@H]2C[C@@]3(C(=O)OC)CCCCC=C3N(Cc3ccco3)C2=O)CC1
- Vaccinia Venus = 1.4%
- VACV mCherry inh = -14.5%

Cc1ccc(C(c2sc3nc(-c4ccco4)nn3c2O)N2CCOCC2)cc1 (stereo not given)
- Vaccinia Venus = -6.9%
- VACV mCherry inh = -10.8%

COc1ccc(C2C(C(C)=O)=C(O)C(=O)N2c2ccccn2)cc1 (stereo not given)
- Vaccinia Venus = -3.4%
- VACV mCherry inh = -14.2%

# Later entries:
SMILES,Vaccinia Venus,VACV mCherry inh
COc1ccc(C)cc1NS(=O)(=O)c1ccc2c3c(cccc13)C(=O)N2,-20.9%,-28.4%
CNC(=O)c1c(NC(=O)c2cc(=O)c3ccccc3o2)sc2c1CCC2,-1.4%,-6.1%
Cc1nn(-c2ccncc2)c2c1C(=O)CC(C)(C)C2Br (stereo not given),-5.2%,-2.3%
CCOC(=O)C1CCN(C(=O)c2n[nH]c(=O)c3ccccc23)CC1,-10.7%,-5.9%
O=C(NCc1cccnc1)c1cc(C2CCCCN2C(=O)c2cccs2)on1 (stereo not given),3.3%,-2.3%
COc1ccc(COCCN2CCN(S(=O)(=O)c3ccc(C)cc3)CCC2=O)cc1,-15.4%,-13.7%
CCNC(=O)C1CCCN(C(=O)c2cc(C)oc2C)CC1 (stereo not given),0.0%,12.6%
COc1ccc(C)cc1S(=O)(=O)N1CCN(S(=O)(=O)c2cc(C)ccc2OC)C(C)C1 (stereo not given),-14.8%,-1.7%
Cc1c(C2(O)CCCCC2)[nH]c2cc(C(F)(F)F)ccc12,?,i
Cc1nc(SCC#N)c2c3c(sc2n1)CCC3,-26.5%,.
CO[C@H]1C[C@@H]2CC[C@@H](C)[C@@](O)(O2)C(=O)C(=O)N2CCCC[C@H]2C(=O)O[C@H](C(C)C[C@H]2CC[C@@H](O)[C@H](OC)C2)CC(=O)[C@H](C)/C=C(\C)[C@@H](O)[C@@H](OC)C(=O)[C@H](C)C[C@H](C)/C=C/C=C/C=C/1C (stereo not given in full),-30.5%[20.9 µM],-16.9%[20.9 µM]
O=c1c2ccccc2ncn1Cc1ccccc1,-6.4%[7.34 µM],-5.0%[7.34 µM]
CC(C)c1ccc(NC(=O)c2cc(S(=O)(=O)N3CCCCC3)cn2C)cc1,-23.1%,-14.5%
O=C(NCCCNc1ccc([N+](=O)[O-])cc1Cl)c1ccccc1F,-4.7%,i
Cc1cccc(NC(=S)NCCc2ccccc2)n1,-14.1%,?
Cc1nc(-c2cccc(NS(=O)(=O)c3ccccc3)c2)cs1,-24.8%,.
N=C1SCC(=O)N1c1ncc(Cc2cccc(Cl)c2)s1,-4.8%,i
Cn1c(=O)c2sccc2n2c(CCCC(=O)Nc3ccc(Cl)cc3)nnc12,-4.2%,1.9%
CCNC(=S)SCCOc1ccc(C)cc1,-11.9%,i
CN(CC(=O)NCC(=O)Nc1ccc(F)cc1)CC(=O)Nc1ccc(Cl)c(C(F)(F)F)c1,-23.5%,-12.5%
CCOC(=O)C1CCN(C(=O)c2cc(COc3ccc(F)cc3F)on2)CC1,-2.4%,i
Cc1ccc2oc(C(=O)NCCCN3CCOCC3)c(C)c2c1,-25.3%,-21.5%
CCOC(=O)c1ccc(N2CCN(C(=O)c3ccccc3)CC2)c(NC(=O)c2ccco2)c1,-11.1%,-10.4%
Cn1nccc1NS(=O)(=O)c1ccc(NC(=O)C(F)(F)F)cc1,-4.5%,i

# Single records, from the list above. Order of values: Vaccinia Venus	VACV mCherry inh
# Results for `CCc1ccc(-n2c(=O)c3c(C)c(C(=O)N(C)C)sc3n(Cc3ccccc3C#N)c2=O)cc1` → -3.9%	-5.1%
# Results for `CCOC(=O)N1CCN(C(=O)C[C@@H]2C[C@@]3(C(=O)OC)CCCCC=C3N(Cc3ccco3)C2=O)CC1` → 1.4%	-14.5%
# Results for `COC(=O)c1sccc1NS(=O)(=O)c1ccccc1[N+](=O)[O-]` → -19.6%	-2.4%
# Results for `CC(C)NC(=O)N(C)C[C@H]1Oc2ccc(NC(=O)CCC(F)(F)F)cc2C(=O)N([C@H](C)CO)C[C@@H]1C` → -9.8%	i
# Results for `COc1cccc(C2CC(=O)Nc3c2c(=O)nc2c(C)cccn32)c1` (stereo not given) → 4.9%	1.5%

# (list continues)
SMILES,Vaccinia Venus,VACV mCherry inh
CCOc1ccc(-c2cccc(NS(=O)(=O)c3ccc(C)s3)c2)nn1,-3.0%,-3.7%
C[C@]12CCC3C(CC[C@@H]4CC(=O)CC[C@]34C)C1CC[C@@H]2O (stereo not given in full),-12.5%,?
COc1ccc(CC(=O)NCCc2csc(-c3ccc(C(F)(F)F)cc3)n2)cc1,-3.9%,-19.8%
CCC(C(=O)OCC(=O)Nc1ccc(C(=O)Nc2ccc(OC)cc2)cc1)c1ccccc1 (stereo not given),?,-6.5%
O=C(NCc1ccccc1)C(c1cccc2ccccc12)n1c(=O)c(-c2cc3ccccc3[nH]2)nc2ccccc21 (stereo not given),-10.1%,0.2%
CCOc1ccc(-c2cc3c(=O)n(CC(=O)NCc4ccccc4)ccn3n2)cc1,1.4%,-8.6%
COc1cccc(CNC(=O)c2cc3n(n2)CCCN(Cc2ccc(C)cc2)C3=O)c1OC,-18.0%,-16.1%
COC(=O)c1ccccc1OC(=O)c1cc2ccccc2oc1=O,-21.9%,-9.5%
O=[N+]([O-])c1cccc(COc2ccccc2CN2CCOCC2)c1,-11.9%,-13.8%
CCN1C(=O)C(Cc2nc3ccccc3c(=O)n2-c2cccc(C)c2)c2ccccc21 (stereo not given),-3.4%,-8.6%
COc1ccc(O)c(C(=O)c2cnn(-c3ccccn3)c2)c1,-0.4%,-4.7%
CCOC(=O)C1=C(C)N(C)C(=O)NC1c1c(OC)ccc2ccccc12 (stereo not given),-17.4%,-1.6%
CCc1n[nH]c2c1/C(=N\O)CC(C)(C)C2,?,.
CCOC(=O)/C(C#N)=C1/C=CN(c2ccccc2)C=N1,-3.7%,.
CCCCCn1c(=O)c(C(=O)OCC)c(Cl)c2ccccc21,-14.3%,-16.9%
C[C@H](NC(=O)Nc1ccccc1F)C(=O)O,-6.6%,i
NS(=O)(=O)c1ccc(CCNc2ccn3nc(-c4ccccc4)cc3n2)cc1,-0.6%,-12.1%
CC(C)CSc1nc2ccccc2n1CC(=O)O,-15.1%,i
COc1ccc(C(C)=O)cc1COC(=O)c1cc2ccccc2cc1O,-0.2%,-28.3%
O=C(Nc1ccc(Cl)c(Cl)c1)N1CC=CCC1,-6.7%,.
Cc1cc(C)cc(NC(=O)C2CCCN(c3nccc(C)n3)C2)c1 (stereo not given),-5.8%,i
Cc1ccccc1N1CCN(C(=O)c2ccccc2NC(=O)/C=C\C(=O)O)CC1,-23.8%,.
NC(=O)c1ccccc1NC(=O)C(c1ccccc1)c1ccccc1,-12.6%,-14.4%
CC(C)Sc1nc(N2CCCC2)c2c(c1C#N)CC(C)(C)OC2,?,?
Nc1ccccc1SC/C=C/CSc1ccccc1N,-25.3%,?
c1ccc(CN2CCN(c3nc(-c4ccccc4)nc4ccccc34)CC2)cc1,-8.0%,-16.5%
COC(=O)c1c(OC)cc2c(c1C)Oc1c(Cl)c(O)c(Cl)c(C)c1C(=O)O2,-15.9%,-1.6%
CCNC(=S)N(Cc1ccccc1)Cc1nc2ccccc2c(=O)[nH]1,-8.6%,-4.8%
CC(C)(C)c1nc(NCCO)c2nnn(Cc3ccccc3)c2n1,-27.8%,-14.3%
COc1ccc(NC(=O)CSc2[nH]c(=O)cc(C)c2C#N)cc1OC,-12.2%,i
Cc1ccc(C2=CC(C)(c3ccc(C)cc3)Nc3nc(C(F)(F)F)nn32)cc1 (stereo not given),-8.0%,-4.2%
O=C(NCc1ccccc1)c1onc(CSc2ccc(Cl)cc2)c1C(=O)NCC1CC1,0.2%,i
